# CtBP-E1A blk = blocks the CtBP interaction with E1A. AlphaScreen GST-E1A/His-CtBP binding, 1536-well; stronger effect = lower value; control for the full effect not named in the record. activity change, % (no concentration beside the values). 340,000 tested, 0.49% active; in the data active means activity change below about -65%; inconclusive means about -30% to -65%; inactive means above about -30%; note: % is set by controls: 0 for no effect and ±100 for the full control effect; compound concentration not given in the record
#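 AlphaScreen with 125 nM GST-E1A and 125 nM His-CtBP (5X stocks) in Tris pH 8.0, 300 mM NaCl, BSA, Tween 20, TCEP. Compounds preincubated 2 h at 37 deg C, then glutathione donor/nickel acceptor beads added for 1 h at 37 deg C in dark.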
# ClpP mod = qHTS Assay for Activators of ClpP | ATP-dependent Clp protease proteolytic subunit (Bacillus subtilis (strain 168)), P80244 | purified B. subtilis ClpP, FRET peptide cleavage, 20 min | Potency, µM (highest dose often 57.5 µM), inactives show at the highest dose activity change, negative = active | 340,000 tested, 1.9% active | AID 651965, 2013; active = well fitted falling curve with a large enough effect; inconclusive = small, poorly fitted or top-dose-only effect; inactive = no such curve, though single readings can be large or run the other way; note: potency is the fitted concentration of half-maximal effect; the source files actives as falling curves though it sought activators and does not explain the sign; nearly all actives have a fitted effect of over 65% in size; many hits overshoot -100%
# Target sequence (P80244 whole entry, looked up): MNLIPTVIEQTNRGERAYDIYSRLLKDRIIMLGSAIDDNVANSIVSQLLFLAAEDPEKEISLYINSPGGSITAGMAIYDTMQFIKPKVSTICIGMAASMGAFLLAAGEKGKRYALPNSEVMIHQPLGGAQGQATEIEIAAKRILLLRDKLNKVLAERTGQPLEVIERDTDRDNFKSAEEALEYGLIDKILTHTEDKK
#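 ClpP 10 microg/mL final, pH 8 Tris/KCl buffer with BSA, glycerol, Tween-20; compound pinned in; FRET-FV substrate; RT 20 min; Ex320/Em430; ΔFRET vs ADEP 5.8 microM, DMSO, no enzyme.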
# TRPV1 potentiator = human TRPV1 potentiation | TRPV1-expressing cells, Fluo-8 calcium influx, capsaicin EC20 potentiation; host cell line not named in the record; control for the full effect not named in the record | potentiation, % at 8.33 µM | Q8NER1 | AID 540277 | 320,000 tested, 0.02% active; active means potentiation above 80%; inconclusive means 30% to 80%; inactive means below 30%; note: 0% is about no effect
# Target sequence (Q8NER1 whole entry, looked up): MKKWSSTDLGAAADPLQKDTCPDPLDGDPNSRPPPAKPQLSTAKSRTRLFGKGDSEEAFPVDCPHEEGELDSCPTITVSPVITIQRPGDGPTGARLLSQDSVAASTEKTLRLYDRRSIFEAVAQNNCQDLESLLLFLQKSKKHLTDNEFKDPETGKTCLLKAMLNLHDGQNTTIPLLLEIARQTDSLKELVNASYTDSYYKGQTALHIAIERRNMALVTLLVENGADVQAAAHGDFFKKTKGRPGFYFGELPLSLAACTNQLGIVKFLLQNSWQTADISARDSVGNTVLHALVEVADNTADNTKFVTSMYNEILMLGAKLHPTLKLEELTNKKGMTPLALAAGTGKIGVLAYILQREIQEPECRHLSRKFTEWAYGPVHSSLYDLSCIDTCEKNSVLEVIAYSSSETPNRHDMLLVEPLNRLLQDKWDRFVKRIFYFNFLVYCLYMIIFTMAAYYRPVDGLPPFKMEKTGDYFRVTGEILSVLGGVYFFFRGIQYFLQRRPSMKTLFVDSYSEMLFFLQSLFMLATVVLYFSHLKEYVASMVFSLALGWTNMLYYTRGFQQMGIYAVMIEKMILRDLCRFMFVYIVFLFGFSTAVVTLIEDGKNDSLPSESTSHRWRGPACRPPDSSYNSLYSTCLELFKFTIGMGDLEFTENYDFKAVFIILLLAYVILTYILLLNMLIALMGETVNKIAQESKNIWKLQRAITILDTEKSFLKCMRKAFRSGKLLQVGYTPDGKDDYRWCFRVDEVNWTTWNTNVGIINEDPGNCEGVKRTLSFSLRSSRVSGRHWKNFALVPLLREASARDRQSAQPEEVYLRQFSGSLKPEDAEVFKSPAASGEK
#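 Fluo-8 calcium influx in TRPV1-expressing cells, kinetic read (ex 480/em 520 nm). Compound added and read 3 min for agonist activity, followed by capsaicin at EC20 final and 2 min further read for enhancement.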
# gsp agonist = activates gsp, the McCune-Albright syndrome mutation. AID 624287. 340,000 tested, 0.13% active. gsp mutant cells, cAMP HTRF, 30 min; control for the full effect not named in the record. Potency, µM (series often up to 76.9 µM), inactives show at the top dose activation (cAMP increase), most hits filed as activators; active = well fitted activation curve with a large enough effect; inconclusive = small, poorly fitted or top-dose-only effect, or another doubt; inactive = no such curve, though single readings can be large or run the other way; cell line not stated here;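 note: phosphodiesterase inhibitor Ro 20-1724 added with compounds to block cAMP breakdown; potency is the fitted concentration of half-maximal effect; nearly all actives have a fitted effect of over 60% in size; about a fifth of the inactives were tested at one dose only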
#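 Cells stably selected in G418 were plated at 2000/well, grown 16-24 hr, then given compounds in DMSO with the PDE inhibitor […] (300 uM solution added) for 30 min at 37C; cAMP was read by HTRF.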
# Sfp PPTase inh = blocks B. subtilis Sfp PPTase activity; Q9F4F7; Biochemical Sfp PPTase activity, qHTS; Potency, µM, without a hit: max response, negative = inhibition, actives largely listed as inhibitors; 310,000 tested, 3.5% active; active = well fitted inhibition curve with a large enough effect; inconclusive = small, poorly fitted or top-dose-only effect, or another doubt; inactive = no such curve, though single readings can be large or run the other way;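 note: the enzyme is Sfp with the accession as filed and its product quenches rhodamine fluorescence; potency is the fitted concentration of half-maximal effect; 0% = enzyme reaction without inhibitor and -100% = no enzyme wells; top concentration of the series not given in the record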
#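 Reaction rates are the 30-min fluorescence difference (ex 525, em 598 nm) in wells containing 15 nM Sfp, 5 uM rhodamine-CoA and 12.5 uM BHQ-2-YbbR at pH 7.6 with 10 mM MgCl2.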
# Menin MLL FP FL = inhibitors of human menin-MLL interaction, wild-type MLL peptide; Fluorescence polarization, fluorescein-MLL peptide displacement from menin; FP activity change, % at 61.4 µM; AID 1766; 290,000 tested, under 10 active; inconclusive = falling polarisation curve, or a change in total fluorescence; inactive = total fluorescence flat and polarisation flat or rising; no compound was filed as active; the % refers to the polarisation; negative = inhibition;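 note: % of control where 0% means no effect; inhibitors lower the polarisation; unlabelled MLL peptide was the positive control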
# gsp antagonist = gsp mutant antagonism; AID 624288; Potency, µM (titrated, usually from 76.9 µM), inactives show at the highest dose activity change, negative = inhibition, usual class: inhibitors; 340,000 tested, 0.4% active; gsp-mutant cells, cAMP HTRF, 30 min; control for the full effect not named in the record; active = falling curve of any shape with a large fitted effect; inconclusive = falling curve, mostly with a smaller effect; inactive = flat or rising curve; cell line not stated here;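 note: intracellular cAMP measured with PDE inhibitor Ro 20-1724 present during compound exposure; potency is the fitted concentration of half-maximal effect; % is set by controls: 0 for no effect and ±100 for the full control effect; nearly all actives have a fitted effect of over 65% in size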
#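 Cells in G418 medium, seeded 16-24 h, 37C; buffer exchange to DPBS + 1 mM CaCl2, 0.5 mM MgCl2, 0.05% BSA; cpds in DMSO + […] (300 uM stock), 30 min 37C; HTRF cAMP detection.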
# Numbers without * were called inactive; ? = inconclusive; . = not tested or not shown; [ ] = another dose, or the depositor's remark.
SMILES,CtBP-E1A blk,ClpP mod,TRPV1 potentiator,gsp agonist,Sfp PPTase inh,Menin MLL FP FL,gsp antagonist
O=C(Cn1c(=O)n(Cc2ccccc2)c(=O)c2cc(Cl)ccc21)NCC1CCCO1 (configuration not stated),1,-1.4%,-1,-2%[15.4 µM],6%,-14,-5%
NS(=O)(=O)c1ccc(-n2nncc2C23CC4CC(CC(C4)C2)C3)cc1,7,1.5%,9,1%,1%,1.4,-3%
O=C(CN1CCN(C(=O)N2CCCCC2)CC1)Nc1ccc(F)cc1,12,0.6%,3,-54%[inhibitor],18%,4.2,1%
CCOC(=O)c1ccc(-c2ccc(C=O)o2)cc1,-13,-2.5%,-7,4%[15.4 µM],-21%,8.8,-6%
CCCCN(C(=O)c1ccc(Cl)cc1)C1CC2CCC(C1)N2C (configuration not stated),-13,-5.3%,12,-7%,7%,1.0,-11%
CN(C1CCCCC1)S(=O)(=O)c1cccc2nsnc12,.,2.2%,11,19%,5%,-0.1,3%
Cc1ccc(CN2C(=O)CCC2C(=O)NCCCN2CCCCC2C)cc1 (configuration not stated),9,-0.7%,0,20%,0%,7.8,2%
CCN1CCN(c2ccc(S(=O)(=O)N3CCOCC3)cc2NC(=O)CCC(C)C)CC1,-16,.,18,-1%[15.4 µM],.,.,6%
O/C(=C\Sc1nnc(Cc2ccccc2)o1)c1ccc(Br)cc1,2,-0.5%,-14,0%,16%,-6.0,6%
Cc1ccc(-c2nc(C=Nc3cccc(C)c3)c(O)o2)cc1,4,-2.0%,-8,-15%,-12%,9.4,4%
COc1ccc(C2=NN(C(=O)CSc3nc(=O)n4ccc(C)cc4n3)C(c3ccc(C)cc3)C2)cc1 (configuration not stated),1,29%,9,-4%,.,.,-9%
COc1ccc(C#Cc2ccc3c(c2)O[C@@H](CN(C)C(=O)Nc2cccc(OC)c2)[C@H](C)CN([C@@H](C)CO)S3(=O)=O)cc1,2,3.8%,.,-27%,.,.,.
O=C(COc1ccc2c3c(c(=O)oc2c1)CCCC3)NCC(O)c1ccccc1 (configuration not stated),.,4.0%,-8,41%,11%,.,1%
Cc1nc2c(C)cccn2c(=O)c1NC(=O)c1ccc(Br)o1,19,0.3%,-2,?,.,.,-3%
O=[N+]([O-])c1ccccc1OCCN1CCOCC1,4,-1.1%,3,-7%[15.4 µM],-2%,-1.1,12%
CC(=O)Cn1nnc2sc(-c3ccccc3)cc2c1=O,3,?,2,-2%,12%,6.3,-2%
COc1ccccc1C(=O)Nc1nc(-c2cccs2)c(NC(C)=O)s1,1,?,-13,-13%,-18%,-0.6,3%
CC(C)(C)n1nc2c(c1NC(=O)c1ccc(S(=O)(=O)N3CCCC3)cc1)CS(=O)C2 (configuration not stated),-3,0.4%,14,-2%,9%,3.9,-3%
CCCCN(C(=O)c1cc(-c2ccc(F)cc2)nc2ccccc12)c1c(N)n(CCCC)c(=O)[nH]c1=O,-1,8.8%,5,6%,.,.,10%
O=C(CSCC(=O)OCC(=O)c1ccc(Br)cc1)Nc1ccc(Br)cc1,6,3.0%,21,15%,6%,-4.4,-15%
NC(=O)CSc1nnc(-c2ccc(S(=O)(=O)N3CCOCC3)cc2)n1Cc1ccccc1,-4,-28%,-29,9%,7%,1.6,4%
Cc1ccccc1OCC(O)CN1CCN(C)CC1 (configuration not stated),.,-0.1%,10,-27%,-27%,1.2,0%
CCc1nc(SCC(=O)Nc2nnc(CC)s2)c2c(C)c(C)sc2n1,6,-0.6%,7,-30%[inhibitor],13%,3.3,23%
Cn1c(=O)c2cc(S(=O)(=O)NC(C(=O)NCc3cccnc3)c3ccccc3)ccc2n(C)c1=O (configuration not stated),1,-9.8%,28,25%,33%,0.8,12%
COc1ccc(-c2cc3ccc(OCC(C)=O)cc3oc2=O)cc1OC,-13,-11%,-3,?,18%,2.0,4%
O=C(NCc1ccco1)c1cnn2c1NC(c1ccc(Br)cc1)CC2C(F)(F)F (configuration not stated),-8,-0.8%,-2,-7%,2%,1.1,-13%
CCc1cc(=O)oc2cc(OC3CCCCC3=O)ccc12 (configuration not stated),3,.,-5,6%,6%,-2.4,1%
Cc1ccc2c(c1)-c1c(ssc1=S)C(C)(C)N2C(=O)CSc1nncn1C,?,-6.0%,1,-9%,?,-1.1,-3%
O=S(=O)(NC1CC2CCC1C2)c1ccc(Br)s1 (configuration not stated),5,-17%,-3,-30%,3%,0.4,16%
COc1ccc(NC(=S)N/N=C/c2ccc(F)cc2)cc1OC,0,.,-5,-4%[15.4 µM],2%,0.2,.
CCC(=O)NC(NCC1CCCO1)C(Cl)(Cl)Cl (configuration not stated),4,1.2%,-1,24%,17%,-1.7,3%
O=C(Oc1ccc(Br)cc1C(=S)N1CCCC1)c1ccccc1Cl,-16,-3.4%,0,7%,-5%,4.9,-23%
CCN1CCN(CCCNC(=O)c2ccc3c(c2)NC(=O)/C(=C\c2cccc(C)c2)S3)CC1,.,2.2%,-4,-20%,35µM*,.,1%
COCCCNC(=O)Cc1ccc(-n2c(C)nc3cccnc32)cc1,-1,-6.1%,0,10%,23%,-28,13%
O=C(Nc1ccccc1)c1ccc(OC(=O)c2cc3ccccc3o2)cc1,-1,25%,2,-48%[inhibitor],4%,6.5,3%
O=C1c2ccccc2CN1Cc1ccccc1,14,.,-1,-6%,-14%,-0.9,1%
COC(=O)c1cc(OC)c(OC)cc1N1C(=O)CC(C)(C)CC1=O,-4,-2.1%,?,13%[15.4 µM],14%,2.0,-25%
Cc1ccc(S(=O)(=O)CCC(=O)NCc2ccccc2F)cc1,0,-5.0%,-12,?,.,.,1%
CCOC(=O)c1ccc2nc(NC(=O)c3cccs3)sc2c1,0,?,-21,-15%,3%,1.8,-10%
Cc1ccc(C)c(SCC(=O)Nc2nnc(-c3ccccc3)o2)c1,-12,-0.1%,-20,-12%,-2%,0.9,-14%
O=C(Nc1ccc(Cl)cc1)c1cc(Br)ccc1OCC(=O)N1CCOCC1,-5,-19%,-9,-11%,4%,.,-26%
CCOC(=O)c1cccc(NS(=O)(=O)c2c(C)[nH]c(C)c2C(=O)N2CCCC2)c1,-1,0.1%,-4,19%,3%,1.2,2%
CCOc1ccc(C(=O)OCC(=O)Nc2cc(C)on2)cc1OCC,0,-2.8%,11,12%,9%,-0.6,42%[activator]
CC(C)NC(=O)c1ccc2c3n(nc2c1)-c1ccc(Cl)cc1CO3,.,?,27,-108%[inhibitor],5%,-1.6,-12%
CCN(CC)CCNC(=O)c1cc(S(=O)(=O)N2CCc3ccccc32)cn1C,3,0.0%,9,2%,6%,2.7,9%
Cc1nnc(SCc2cc(=O)[nH]c(Nc3nc(C)c4cc(C)c(C)cc4n3)n2)s1,3,.,-5,?,12%,-4.5,-6%
CN1CCN(CCC(=O)N/N=C/c2cc([N+](=O)[O-])ccc2OC(F)F)CC1,0,.,-5,7%,0%,2.0,12%
CCN1CCN(C(=O)C2CC(c3ccc(F)cc3)=NO2)CC1 (configuration not stated),2,0.3%,-2,?,11%,1.9,13%
COc1ccc(OC)c(S(=O)(=O)N2CCN(C)CC2)c1,2,-0.3%,0,-14%,-6%,-2.0,3%
COc1ccc(OC)c(N(CC(=O)NCCc2ccc(OC)c(OC)c2)S(=O)(=O)c2ccccc2)c1,-10,.,-3,-7%[15.4 µM],6%,.,-10%

# Additional records follow.
SMILES,CtBP-E1A blk,ClpP mod,TRPV1 potentiator,gsp agonist,Sfp PPTase inh,Menin MLL FP FL,gsp antagonist
Brc1ccccc1OCCCN1CCCC1,7,-1.2%,1,25%,-15%,-1.5,12%
Cc1ccc(NC(=O)CN2C(=O)NC(C)(CC(C)C)C2=O)c(Br)c1 (configuration not stated),4,.,.,15%,.,.,6%
COc1cc(C2CC(=O)c3cnc(NC(=O)COc4ccccc4)nc3C2)cc(OC)c1OC (configuration not stated),-1,1.4%,17,2%,0%,4.2,6%
C=CCSc1nc2ccccc2c(=O)n1Cc1ccccc1,22,.,-9,-17%[15.4 µM],?,4.4,-3%
COc1ccc2oc(=N)c(C(=O)Nc3ccc(F)cc3)cc2c1,-3,.,-9,-35%,11%,-3.1,3%
CC(=O)N=c1sc(C(C)(C)C)c(C)n1C,-2,-5.4%,6,7%,-2%,2.6,6%
CS(=O)(=O)N1CCN(c2ccc(NC(=O)COc3ccccc3)cc2)CC1,4,.,-4,-8%[15.4 µM],18%,0.2,13%
CC(C(=O)N1CCCCCC1)N(c1ccc(Cl)cc1)S(C)(=O)=O (configuration not stated),7,.,-20,6%,10%,11,7%
Nc1c(C(=O)c2ccccc2)oc2ccccc12,-4,-5.3%,-4,12%,8%,2.7,-1%
Cc1cccc(CN(C(=S)Nc2c(C)cccc2C)c2cccnc2)c1,0,-1.2%,-13,-4%[15.4 µM],1%,-25,18%

# Single entries from the entries so far:
# Cc1ccc(NC(=O)CN2C(=O)NC(C)(CC(C)C)C2=O)c(Br)c1 (configuration not stated) in CtBP-E1A blk = 4
# C=CCSc1nc2ccccc2c(=O)n1Cc1ccccc1 in TRPV1 potentiator = -9

# Additional entries follow.
SMILES,CtBP-E1A blk,ClpP mod,TRPV1 potentiator,gsp agonist,Sfp PPTase inh,Menin MLL FP FL,gsp antagonist
COc1cc2c(cc1OC)CN(C(=O)c1ccc([N+](=O)[O-])o1)CC2,0,.,11,5%[15.4 µM],3%,5.3,-7%
CCOC(=O)/C(C)=N/Nc1nc(-c2ccc(NC(C)=O)cc2)cs1,-4,.,9,7%,28µM*,-1.8,-9%
CCOc1ccc(NC(=O)CCN2C(=O)c3cccc([N+](=O)[O-])c3C2=O)cc1,.,-0.4%,29,-32%[inhibitor],1%,-2.6,-29%
CCOC(=O)CNC(=O)CSc1ncnc2c1cnn2Cc1ccccc1,7,-1.6%,24,3%,4%,-2.6,-11%
Cc1ccc(NC(=O)C/C(N)=N/O)cc1Cl,.,-1.8%,-20,-4%,14%,1.3,8%
N#CC(C#N)=Cc1cc2ccccc2nc1N1CCOCC1,5,8.0%,-1,-3%,-9%,2.5,4%
NCC(=O)NCC(=O)NC[C@H]1O[C@@H](n2cnc3c(N)ncnc32)[C@H](O)[C@@H]1O,4,0.9%,.,.,.,.,8%

# Assay outcomes deposited in PubChem by National Center for Advancing Translational Sciences (NCATS).

# Compounds as they come. Share with any hit: about 5.3%.
